# From PubChem BioAssay
# GLA inh pH 4.5: qHTS Assay for Inhibitors of Human alpha-Galactosidase at pH 4.5; Alpha-galactosidase A (Homo sapiens), P06280; purified enzyme, 4-MU-alpha-Gal fluorescence, pH 4.5; activity change, negative = inhibition, % at 105 µM; 230,000 tested, under 10 active; AID 1467, 2008; inconclusive = small, poorly fitted or top-dose-only inhibition, or a rising curve; inactive = flat fitted curve, though single readings scatter; no compound was filed as active;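 further: 0% = full activity with enzyme and -100% = basal without enzyme; dose as in the result columns while the protocol names 77 µM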
# Rango-impB inh: qHTS Assay for Inhibitors of Rango (Ran-regulated importin-beta cargo) - Importin beta complex formation; Potency, µM (titrated, usually from 92.2 µM), inactives show at the top dose inhibition of complex formation; Importin subunit beta-1 (Homo sapiens), Q14974; Rango CFP/YFP FRET sensor + importin beta, 45 min; actives 0.031% (n = 340,000); active = rising FRET ratio curve, often small or poorly fitted; inconclusive = mostly compound fluorescence or quenching in the first reads; inactive = flat curves in all reads;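 further: potency means the concentration at half of the fitted maximal effect; 0% = DMSO wells and 100% = buffer wells lacking importin beta; nearly all actives have a fitted effect of over 15% in size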
# Target sequence (Q14974 whole entry, looked up): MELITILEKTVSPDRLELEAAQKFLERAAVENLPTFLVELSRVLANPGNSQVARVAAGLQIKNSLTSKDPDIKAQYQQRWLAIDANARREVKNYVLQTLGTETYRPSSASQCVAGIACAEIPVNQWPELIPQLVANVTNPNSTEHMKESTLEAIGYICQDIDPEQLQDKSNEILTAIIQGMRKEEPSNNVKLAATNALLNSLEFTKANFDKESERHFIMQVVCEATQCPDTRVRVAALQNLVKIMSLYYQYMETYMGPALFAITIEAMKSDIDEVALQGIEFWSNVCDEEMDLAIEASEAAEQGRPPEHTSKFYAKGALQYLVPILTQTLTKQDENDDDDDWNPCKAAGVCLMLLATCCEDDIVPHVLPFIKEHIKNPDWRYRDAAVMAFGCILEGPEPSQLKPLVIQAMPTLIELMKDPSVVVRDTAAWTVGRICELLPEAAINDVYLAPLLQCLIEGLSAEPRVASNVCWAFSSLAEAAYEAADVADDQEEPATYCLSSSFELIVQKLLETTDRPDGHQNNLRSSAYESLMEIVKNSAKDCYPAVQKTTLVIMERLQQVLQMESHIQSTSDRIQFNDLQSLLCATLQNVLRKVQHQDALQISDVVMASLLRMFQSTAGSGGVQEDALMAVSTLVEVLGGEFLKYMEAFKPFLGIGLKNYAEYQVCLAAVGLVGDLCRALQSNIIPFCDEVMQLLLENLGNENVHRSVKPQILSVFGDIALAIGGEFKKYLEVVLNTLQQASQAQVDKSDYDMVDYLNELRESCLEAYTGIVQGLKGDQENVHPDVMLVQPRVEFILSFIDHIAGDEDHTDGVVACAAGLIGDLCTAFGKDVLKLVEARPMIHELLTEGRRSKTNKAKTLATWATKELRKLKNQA
#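 FRET biosensor (snurportin 1 IBB flanked by EYFP and cerulean), 50 nM, with compound 5 min, then 0.125 microM importin beta in PBS, 1 mM DTT, 0.02% Tween-20, 0.1% BSA. CFP/YFP ratio read after 45 min at room temperature; pre-read flags interference.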
# Rango release inh: qHTS Assay for Inhibitors of RanGTP induced Rango (Ran-regulated importin-beta cargo) - Importin beta complex dissociation. Snurportin-1 (Homo sapiens) + GTP-binding nuclear protein Ran (Homo sapiens) + Importin …. Biochemical FRET Rango-importin beta, RanGTP-induced dissociation. Potency, µM (titrated, usually from 46.1 µM), inactives show top-dose activity change, negative = inhibition. actives 0.071% (n = 340,000); active means falling FRET ratio curve, often poorly fitted, with flat reads before Ran was added; inconclusive means other falling curves, or compound fluorescence or quenching; inactive means flat or rising ratio curve;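 further: potency means the concentration at half of the fitted maximal effect; % of control where 0% means no effect; nearly all actives have a fitted effect of over 45% in size; -100% = wells without RanGTP and RCC1; the record marks most hits as doubtful in a second field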
#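 Rango/importin beta premix (0.1/0.25 uM final), PBS + 1 mM DTT + 0.02% Tween-20 + 0.1% BSA; cpd 5 min RT; FRET pre-read; + RanGTP-RCC1 (0.6 uM Ran, 2 mM GTP, 0.2 uM RCC1); 45 min RT; FRET post-read, ex 430, em 486/530 nm.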
# miR-21 FLuc: qHTS Assay for Modulators of miRNAs and/orActivators of miR-21 | Potency, µM (top dose mostly 38.3 µM), for inactives: at the top dose reporter change, positive = more light | 340,000 tested, under 10 active | HeLa miR-21 FLuc reporter, luciferase, 48 h | AID 2288, 2010; active = well fitted rising curve with a large enough effect; inconclusive = small, poorly fitted or top-dose-only effect; inactive = no such curve, though single readings can be large or run the other way;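 further: % of control where 0% means no effect; miR-21 action dims this reporter so a rising signal means less miR-21 action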
#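 HeLa cells stably expressing CMV-driven firefly luciferase with a downstream miR-21 binding sequence, endogenously expressing miR-21, were treated with titrations (up to about 40uM final) for 48 hours at 37 degree Celsius. Luciferase luminescence was read after lysis.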
# An asterisk follows results filed as active; ? = inconclusive; . = no result given. Not all compounds are listed; count on the stated rates, not on these rows.
# Sample of the layout, 2 compounds:
GLA inh pH 4.5,miR-21 FLuc,Rango release inh,Rango-impB inh,Compound
-4,-2%,?,0.6%,COCCOc1cc(NC(=O)c2ccccc2)c(Cl)cc1Cl
.,.,-11%,2.6%,Cc1onc(-c2ccccc2Cl)c1C(=O)OCC(=O)N1CCCCC1

# All compounds of this part, from the start:
GLA inh pH 4.5,miR-21 FLuc,Rango release inh,Rango-impB inh,Compound
-4,-2%,?,0.6%,COCCOc1cc(NC(=O)c2ccccc2)c(Cl)cc1Cl
.,.,-11%,2.6%,Cc1onc(-c2ccccc2Cl)c1C(=O)OCC(=O)N1CCCCC1
.,-2%,-16%,-0.1%,O=C1c2cccnc2C(=O)N1Cc1ccc(S(=O)(=O)NCc2ccco2)s1
6,-4%,-3%,0.1%,COCCCNc1nc2ccccc2nc1NS(=O)(=O)c1ccccc1
7,-3%,6%,0.4%,C=CCNC(=O)CC12CC3CC(C1)CC(CC(=O)NCC=C)(C3)C2
-10,-3%,12%,3.5%,CCc1nnc(NC(=O)CC(CN(C)S(=O)(=O)c2ccccc2)c2ccccc2)s1 (stereo not given)
.,.,15%,-2.1%,CCCc1cc(=O)[nH]c(SCC(=O)NCC2COc3ccccc3O2)n1 (stereo not given)
-4,-10%,3%,3.9%,Cc1ccc(NC(=O)C2CCN(S(=O)(=O)c3c(C)[nH]c(=O)[nH]c3=O)CC2)cc1
-1,-3%,.,.,CC1(C)Cc2c(sc3c2c(N)nc(=S)n3Cc2ccccc2)CO1
.,-20%,-7%,0.0%,CCCN(CCC)C(=O)c1ccc2c(c1)S(=O)(=O)c1ccccc1C2=O
3,0%,13%,-0.9%,COC(=O)c1cc(Br)c(=O)n(CCN(C(C)C)C(C)C)c1
.,-5%,-16%,2.1%,Cc1cc(C)n(S(=O)(=O)c2ccc(Cl)cc2)n1
1,-5%,-1%,-0.6%,CCOC(=O)c1c(C2CC2)csc1NC(=O)COC(=O)c1cc(OC)c(OC)cc1[N+](=O)[O-]
.,.,16%,-1.0%,COc1cc2c(cc1OC)C1C(=O)c3cc(OS(C)(=O)=O)c(OC)cc3C1N(C)C2=O (stereo not given)
4,-2%,0%,-9.6%,O=C(COC(=O)CCc1nc2ccccc2s1)Nc1ccc(S(=O)(=O)N2CCOCC2)cc1
-5,6%,9%,-0.3%,CCOc1cc(/C=N/NC(=O)c2ccc(=O)n(C)c2)ccc1O
0,-4%,9%,-4.8%,O=S(=O)(N/N=C\c1ccc(-c2ccccc2Cl)o1)c1ccccc1
7,-6%,-3%,-3.6%,C#Cc1ccc([C@H]2C=C(C(=O)NC3CC3)O[C@@H](OCC)[C@@H]2CCCO)cc1
-1,-24%,-20%,0.2%,C/C(=N\OC(=O)Nc1ccccc1)c1cnn(-c2cc(C(F)(F)F)cc(C)n2)c1C
11,17%,15%,0.9%,CCOC(=O)c1ccc(NC(=O)CSc2nc(NC(=O)c3ccccc3)c3c(C)c(C)oc3n2)cc1
6,-6%,1%,0.4%,Cc1cc(Nc2ccccc2C(=O)O)n(-c2ccc([N+](=O)[O-])cc2)n1
.,0%,11%,2.8%,Cc1cccc(C)c1N(CC(=O)N(C)Cc1ccccc1)S(C)(=O)=O
4,-52%,-15%,0.0%,CC(=O)Nc1ccc2oc(-c3ccccc3Br)nc2c1
10,5%,-3%,-0.5%,COc1ccccc1Nc1nnc(SCc2cc(=O)n3ccsc3n2)s1
.,-1%,-1%,-2.2%,Cc1ccccc1N1CCN(CC(=O)Nc2nc(C)c(C(=O)N(C)C)s2)CC1

# (more compounds)
GLA inh pH 4.5,miR-21 FLuc,Rango release inh,Rango-impB inh,Compound
.,.,-5%,1.0%,COc1ccc([C@@H]2CC=C(C(=O)O)[C@H](c3ccc(C)cc3)N2S(=O)(=O)c2ccccc2C)cc1
.,.,-11%,2.0%,Nn1c(SCC(=O)NCC2CCCO2)nnc1-c1ccc(OC(F)F)cc1 (stereo not given)
0,6%,7%,-2.6%,O=C(Nc1ccc([N+](=O)[O-])cn1)C1CC1
.,-26%,-11%,-0.7%,O=C(Nc1ccccc1Cl)c1ccc2nc(N3CCOCC3)sc2c1
.,5%,-11%,4.0%,COc1cccc(NC(=O)CCC(=O)N2CC(C)Oc3ccc(C)cc32)c1 (stereo not given)
.,12%,-10%,4.0%,CCCS(=O)(=O)c1nc(S(=O)(=O)c2ccc(C)cc2)c(N2CCC(C(N)=O)CC2)s1
.,-2%,8%,-0.1%,COC(=O)c1c(NC(=O)C(=O)N2CCOCC2)sc2c1CCCC2
-2,-5%,2%,-5.3%,CC1(C)Cc2c(sc3c2c(=N)n(Cc2ccco2)c(=O)n3CC(=O)Nc2ccccc2)CO1
-7,-13%,-19%,4.1%,COc1ccc(C=C2C(=O)c3ccccc3C2=O)cc1O
-11,-47%,-21%,-1.1%,Cc1nn(-c2nc3ccccc3s2)c(N)c1-c1ccc(Cl)cc1
14,-48%,10%,2.5%,CCOc1ccc(-n2nnnc2-c2nc3ccccc3s2)cc1
.,.,-1%,-1.1%,COc1ccc(-c2c(-c3cc(OC)cc(OC)c3)n(C)c3ccc(-c4ccn[nH]4)cc23)cc1
0,3%,-7%,2.9%,Cc1nn(Cc2ccc(C(=O)Nc3ccc(C(=O)OC(C)C)cc3)o2)c(C)c1Cl
.,.,-7%,-2.6%,Cc1c(Cl)cccc1NC(=O)COC(=O)Cn1cnc2c1c(=O)n(C)c(=O)n2C
.,.,12%,?,Cc1cccc(CN2C(=O)[C@H]3Cc4c([nH]c5ccccc45)C(C)(C)N3C2=O)c1
.,0%,20%,-0.6%,C=CCN(CC=C)C(=O)CN1C(=O)NC(C)(c2ccc3cc(OC)ccc3c2)C1=O (stereo not given)
.,5%,3%,-0.4%,NS(=O)(=O)c1cccc(NS(=O)(=O)c2ccc3ccccc3c2)c1
.,0%,3%,-1.4%,CC(C)c1nc2cc(C(=O)N3CCNC(=O)C3c3cccc(F)c3)ccc2o1 (stereo not given)
.,-14%,-17%,-0.5%,CN(C)S(=O)(=O)N1CCC(Oc2ccc(C(=O)NC3Cc4ccccc4C3)cc2)CC1
10,-9%,-4%,-0.6%,CC1CN(C(=O)CN2C(=O)c3ccccc3S2(=O)=O)CC(C)O1 (stereo not given)
.,.,-22%,?,COc1cc(NC(=O)CN2C(=O)C(=O)N(CC(C)C)C2=O)cc(OC)c1
-28,13%,-7%,-0.5%,COc1ccc([N+](=O)[O-])cc1N(CC(O)CN(CC(C)C)CC(C)C)S(=O)(=O)c1ccc(C)cc1 (stereo not given)
.,.,0%,-2.9%,CN(C(=O)c1cccc(NC(=O)Cc2ccc(NC(=O)C3CCN(C(=O)C4CCC4)CC3)cc2)c1)C1CCCC1
-5,0%,-12%,-1.5%,Cc1cccc(C)c1NC(=O)NCc1ccco1
1,-5%,-6%,0.4%,COc1ccc(/C=C(\C#N)C(=O)OCC(=O)Nc2c(C)cccc2C(C)C)cc1

# Next section:
GLA inh pH 4.5,miR-21 FLuc,Rango release inh,Rango-impB inh,Compound
.,-8%,-1%,-0.6%,C=C(C)CN(CC)c1ccc(N2C(=O)CCCC2=O)cc1[N+](=O)[O-]
-4,28%,12%,1.1%,Cc1ccc(C)c(NS(=O)(=O)c2cc(C(=O)Nc3ccccc3-c3ccccc3)ccc2C)c1
5,-9%,-7%,3.0%,CCCCNC(=O)N1CCOCCOCCN(C(=O)NCCCC)CCOCCOCC1
.,?,-5%,1.7%,COc1ccc(OC)c(Nc2c3c(nc4ccccc24)CCC3)c1
-4,-10%,34%,2.3%,O=C(CNC(=O)c1ccco1)Nc1cc(Cl)ccc1N1CCOCC1
-23,18%,1%,-4.0%,O=C(CSc1ncnc2sc3c(c12)CCCCC3)NCc1ccco1
.,.,-11%,-4.9%,O=C(CNC(=O)c1ccccc1Br)NNC(=O)c1cccs1
-4,-3%,21%,0.7%,O=C(c1ccccc1SCc1ccccc1)N1CCCCCC1
0,2%,2%,-4.0%,Cc1cc(=O)oc(C)c1C(=O)Nc1ccccc1F
-17,-38%,-2%,-3.0%,COc1ccc(NC(=O)CN2CCN(C3c4ccccc4-c4ccccc43)CC2)cc1
6,3%,17%,-1.9%,O=c1[nH]c2ccccc2n2cnnc12
5,20%,1%,-0.9%,COc1cccc(OCCOCC(O)CN2CCN(Cc3ccc(Cl)cc3)CC2)c1 (stereo not given)
.,-7%,-10%,0.3%,CC1(C)Cc2c(cnn2-c2ccccc2)C(NC(=O)c2ccoc2)C1 (stereo not given)
2,-2%,-4%,-3.1%,Cc1ccc2cc(/C=N/NC(=O)c3ccccc3[N+](=O)[O-])c(Cl)nc2c1
-4,0%,-8%,-2.5%,CCOC(=O)C1(CC2CC2)CCN(Cc2ccc(C(=O)OC)cc2)CC1
-1,-4%,-2%,0.8%,O=C(CSc1ncnc2c1cnn2-c1ccccc1)Nc1ccccc1
3,-12%,1%,-3.9%,CC(C)NC(=O)C(=O)NNC(=O)C12CC3CC(CC(C3)C1)C2
.,0%,-8%,-4.3%,COc1ccc(CC(=O)N2CCN(c3ccccc3)CC2)cc1OC
.,.,1%,-2.3%,O=C(NCc1ccco1)c1cc(S(=O)(=O)NC2CC2)ccc1Br
-3,0%,-8%,?,O=S(=O)([N-]c1nc2ccccc2nc1-n1cc[n+](Cc2ccccc2)c1)c1ccc(Br)cc1
3,-1%,-19%,4.6%,COc1cc(OC)c(OC)cc1CN1CCN(c2ccc(F)cc2)CC1
-5,-6%,-1%,0.3%,Cc1cc(C)c2nc(-c3ccccn3)cc(C(=O)NCc3cc(C)n(C)n3)c2c1
9,-6%,-10%,3.9%,CSCCC(NC(=O)c1ccco1)C(=O)NCc1ccc(F)cc1 (stereo not given)
5,-18%,1%,-0.6%,COC(=O)c1ccc(NC(=O)CN2CCCC2)cc1
-3,16%,-2%,0.9%,O=C(c1cnc2n(c1=O)CCS2)N1CCN(C(c2ccccc2)c2ccc(Cl)cc2)CC1 (stereo not given)

# Some of these compounds in order of their number in Rango release inh, falling:
GLA inh pH 4.5,miR-21 FLuc,Rango release inh,Rango-impB inh,Compound
.,.,1%,-2.3%,O=C(NCc1ccco1)c1cc(S(=O)(=O)NC2CC2)ccc1Br
5,-9%,-7%,3.0%,CCCCNC(=O)N1CCOCCOCCN(C(=O)NCCCC)CCOCCOCC1
3,-1%,-19%,4.6%,COc1cc(OC)c(OC)cc1CN1CCN(c2ccc(F)cc2)CC1

# Additional records.
GLA inh pH 4.5,miR-21 FLuc,Rango release inh,Rango-impB inh,Compound
-8,-9%,-6%,-1.0%,CCn1c(Cc2ccccc2)nnc1SCC(=O)NC1CC1
8,-3%,18%,-1.8%,COC(=O)CCC(=O)NC(=S)Nc1ccccc1F
0,-1%,4%,0.5%,COc1ccc(N/C(N)=N/c2nc(CSc3ccc(C)cc3)cc(=O)[nH]2)cc1
.,.,2%,-0.8%,CC1(C)CSC(C)(C)C(=O)N1
4,-1%,-5%,1.9%,COc1ccc(/C=C/C(=O)O)cc1S(=O)(=O)NCc1ccccc1
.,-1%,-10%,-2.2%,CCCN(CC(=O)Nc1ccccc1C)C(=O)c1ccc(S(=O)(=O)N2CCCCCC2)cc1
.,2%,17%,-2.5%,CCOC(=O)c1c(C)oc2c1C(=O)c1ccccc1C2=O
.,-5%,1%,0.2%,CCOc1ccc(C(=O)COC(=O)c2cccc(-n3cnnn3)c2)cc1
.,.,1%,-1.4%,O=C(COC(=O)C1CC1)Nc1ccc([N+](=O)[O-])cc1C(F)(F)F
22,0%,?,?,Cc1ccc(C2NC(=O)c3c(sc4c3CCN(C)C4)N2)o1 (stereo not given)
-8,-7%,-14%,1.6%,Clc1ccc(Cn2nnc(-c3ccc(CN4CCOCC4)cc3)n2)cc1
.,.,9%,0.2%,CN1CCC(N(C)C(=O)c2ccc(Cl)c(S(=O)(=O)Nc3ccc(Cl)cc3)c2)CC1
-15,4%,-9%,-2.6%,CCOC(=O)c1sc2nc(CSc3ccccc3)nc(N3CCC(C(N)=O)CC3)c2c1C
0,-9%,-25%,-5.5%,CCCc1cc(=O)oc2c(C)c(OCc3nn[nH]n3)ccc12
